Bioassay records (PubChem)
VDR inhibitor = blocks the human vitamin D receptor | VDR-SRC2-3 peptide fluorescence polarization, 2 h | Potency, µM, for the others: max response, negative = inhibition, hits mostly inhibitors | 400,000 compounds, 0.93% hits | AID 504847; active means well fitted inhibition curve with a large enough effect; inconclusive means small, poorly fitted or top-dose-only effect, or another doubt; inactive means no such curve, though single readings can be large or run the other way; further: series mostly up to about 120 µM
Target sequence (P11473 whole entry, looked up): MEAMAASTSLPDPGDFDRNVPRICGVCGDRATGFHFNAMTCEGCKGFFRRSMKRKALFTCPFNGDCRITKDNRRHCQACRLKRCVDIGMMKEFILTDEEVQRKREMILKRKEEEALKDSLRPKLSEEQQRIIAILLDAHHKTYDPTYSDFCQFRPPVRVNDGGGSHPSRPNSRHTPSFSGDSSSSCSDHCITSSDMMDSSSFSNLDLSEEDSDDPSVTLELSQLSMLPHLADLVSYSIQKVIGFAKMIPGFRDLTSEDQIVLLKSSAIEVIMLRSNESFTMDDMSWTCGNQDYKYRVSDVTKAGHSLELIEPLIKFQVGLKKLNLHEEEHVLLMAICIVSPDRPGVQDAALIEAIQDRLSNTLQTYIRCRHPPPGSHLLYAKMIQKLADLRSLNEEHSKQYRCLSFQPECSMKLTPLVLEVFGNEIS
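Fluorescence polarization assay of small-molecule disruption of VDR binding to coregulator peptide SRC2-3. Compounds and controls pin-transferred, then read after 2 h incubation at ambient room temperature.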
An asterisk follows results filed as active; ? = inconclusive; [ ] = dose if it differs, or a comment. On the % scale 0 is the no-effect control and ±100 the full control effect; potency means the concentration at half of the fitted maximal effect.

SMILES	VDR inhibitor
Cc1nn(-c2ccccc2)c(Cl)c1/C=N/NC(N)=O	-8.5%
CCN(CC)S(=O)(=O)c1ccc(N2CC(C(=O)NC3(C)CCS(=O)(=O)C3)CC2=O)cc1 (configuration not stated)	-16.4%
COc1ccc(OC)c(CCNC(=O)C2=C(C)C(=O)OC23CCC(C)CC3)c1 (configuration not stated)	3.0%
COc1ccc2cc(C3=CCCC3(C)C(=O)O)ccc2c1 (configuration not stated)	18.8%
CCNC(=S)NNC(=O)c1cccc(Br)c1	3.5%
CN(C(=O)CSc1nc2c(c(=O)[nH]1)CCCC2)c1ccccc1	7.9%
CCCCNC(=O)Cn1ncc2c(C)n(Cc3cccc(Cl)c3)c(C)c2c1=O	16.1%
COc1ccc(S(=O)(=O)N(C)C2CCN(C)CC2)cc1	-7.3%
OCCCNc1nc(-c2ccc(Cl)cc2)nc2ccccc12	-12.8%
CC(=O)c1ccccc1NC(=O)COc1ccc(N(C)S(=O)(=O)c2ccc(C)c(C)c2)cc1	-9.2%
O=C(CSc1nnc2c(n1)[nH]c1ccccc12)Nc1ccc(N2CCOCC2)cc1	4.0%
Cc1c(NC(=O)CCCCCN2C(=O)c3ccccc3C2=O)c(=O)n(-c2ccccc2)n1C	-5.4%
Cc1nc2sc(C(=O)Nc3ccc(F)cc3)c(N)c2c(-c2ccc(Br)cc2)c1C(=O)Nc1ccc(Cl)cc1	-28.9%
CN(CC(=O)NCc1ccc(F)cc1)Cc1ccc(Br)cc1	-15.2%
CCOc1ccc(NC(=O)c2cc3c(s2)-c2ccccc2OC3)cc1	-12.3%
CC(C(=O)NCc1ccco1)n1nc(-c2ccccc2)c2cc(Cl)ccc21 (configuration not stated)	-24.2%
O=C(NCc1cccnc1)Nc1cc(Cl)cc(Cl)c1	-5.8%
Cc1cc(-c2onc(C)c2C(=O)N/N=C/c2ccccc2)no1	-5.8%
COc1cccc(N2C(=O)C3ON(c4ccccc4)C(c4cccs4)C3C2=O)c1 (configuration not stated)	-1.1%
CC(=O)c1ccc(OCC(O)CN2CCN(S(=O)(=O)c3cccc(Br)c3)CC2)cc1 (configuration not stated)	-7.4%
CC(C)(C)c1ccc(CNc2ccc([N+](=O)[O-])cn2)cc1	5.6%
Cc1ccc(/C=C2\CCCC3=C2NC(=S)NC3c2ccc(C)cc2)cc1 (configuration not stated)	?
CC(C)N1CCc2c(sc(N)c2C#N)C1	-3.4%
COC(=O)c1ccccc1NC(=O)C1CCN(C(=O)c2cc(OC)cc(OC)c2)CC1	-0.9%

Another view of some results above:
> Cc1cc(-c2onc(C)c2C(=O)N/N=C/c2ccccc2)no1
  VDR inhibitor = -5.8%
> O=C(NCc1cccnc1)Nc1cc(Cl)cc(Cl)c1
  VDR inhibitor = -5.8%

Carrying on.
SMILES	VDR inhibitor
CN1CCN(c2ncc3nc(-c4ccc(F)cc4)c(=O)n(Cc4cccs4)c3n2)CC1	-9.7%
CCc1cc(=O)oc2c(C)c(OCC(=O)N3CCC[C@@H]3C(=O)O)ccc12	3.4%
O=C1CN(C(=O)c2ccccc2C(=O)O)c2ccccc2N1	-4.1%
c1n[nH]c(NC2=NCCC2)n1	-2.2%
COc1ccc(CSc2nc(C)cc(=O)[nH]2)cc1Br	-10.1%
COc1ccc(OC(C)C(=O)N2CCCc3ccccc32)cc1 (configuration not stated)	4.9%
CCn1cc(C(=O)NCc2ccccc2Cl)cn1	-19.9%
CC(OC(=O)COc1ccccc1[N+](=O)[O-])C(=O)Nc1ccc(N2CCOCC2)cc1 (configuration not stated)	114.5%[activator]
O=C(c1cc(F)ccc1F)C1CCCN(C(=O)c2cccs2)C1 (configuration not stated)	9.7%
CC(OC(=O)c1ccc(Cl)c(S(=O)(=O)Nc2ccc(F)cc2)c1)C(=O)NC(N)=O (configuration not stated)	-6.1%
COC(=O)CSc1nc(SCc2ccccc2Cl)nc2c1CCCC2	-9.1%
CCCN1CCN(C(=O)c2ccc(CS(=O)c3ccc(Cl)cc3)o2)CC1 (configuration not stated)	2.9%

Sorted by number of heavy atoms (ascending): some entries from above
SMILES	VDR inhibitor
COc1ccc(OC(C)C(=O)N2CCCc3ccccc32)cc1 (configuration not stated)	4.9%
COC(=O)CSc1nc(SCc2ccccc2Cl)nc2c1CCCC2	-9.1%
CCc1cc(=O)oc2c(C)c(OCC(=O)N3CCC[C@@H]3C(=O)O)ccc12	3.4%
CN1CCN(c2ncc3nc(-c4ccc(F)cc4)c(=O)n(Cc4cccs4)c3n2)CC1	-9.7%

The results go on:
SMILES	VDR inhibitor
CCN(C(=O)c1ccc(Cl)cc1[N+](=O)[O-])c1ccccc1C	17.5%
O=C(CNC(=O)N1CC(=O)Nc2ccccc21)NCCc1cccc(F)c1	4.4%
Cc1ccccc1NC(=O)CSc1nc2c(oc3ccccc32)c(=O)n1-c1ccccc1F	0.3%
O=c1ccn([C@@H]2O[C@H](CNS(=O)(=O)c3cc4ccccc4s3)[C@@H](O)[C@H]2O)c(=O)[nH]1	-16.1%
NC(=O)C1CCN(C(c2ccccc2Cl)c2nnnn2CC2CCCO2)CC1 (configuration not stated)	6.4%
COc1ccc(S(=O)(=O)Nc2cc3c(cc2N2CCOCC2)n(C)c(=O)n3C)cc1	11.2%
COc1cc(C(=O)N2CCN(S(=O)(=O)c3cccc(F)c3)CC2)ccc1OCC(=O)N1CCOCC1	-3.2%
CCCCC1(C(=O)OCC)CC(CN2CCOCC2)OC1=O (configuration not stated)	0.9%
COc1cc(CCCN2C(=O)C(=O)NC[C@@H]2CCCCN)cc(OC)c1OC	-13.0%
Cc1cc(Nc2nc3ccccc3nc2Cl)n(-c2ccccc2C)n1	3.4%
COC(=O)c1cc(NC(=O)CC2NCCNC2=O)cc(C(=O)OC)c1 (configuration not stated)	12.1%
COc1ccc(C(=O)CSc2nc3ccc([N+](=O)[O-])cc3[nH]2)cc1	-4.2%
COc1cccc(NC(=O)N2CCN(c3nnnn3-c3ccccc3)CC2)c1	-8.2%
C=CC(=O)Nc1cccc(Oc2ccnc3[nH]ccc23)c1	28.5%
CC(C)(C)NC(=O)C(c1ccccc1)N(Cc1cccs1)C(=O)c1csnn1 (configuration not stated)	-8.2%
C=CCSc1nc(=O)n2ccc(C)cc2n1	15.6%
CC(C)CNC(=O)CO/N=C/c1ccccc1Cl	3.3%
Cc1ccc(OCCOc2ccc(Br)cc2)c([N+](=O)[O-])n1	-2.6%
Cc1ccc(CN(c2ccc(C(=O)NCc3cccnc3)cc2)S(C)(=O)=O)cc1	10.1%
CN(C)C(CNC(=S)Nc1ccccc1)c1cccnc1 (configuration not stated)	-16.8%
Cc1ccc(CSc2nc3ccccc3c(=O)n2Cc2ccco2)cc1	-10.1%
CCOC(=O)C1(CCOC)CCN(Cc2cccc(OCc3ccccc3)c2)CC1	-8.4%
COc1ccc(CCCNC(=O)C2CCC(=O)N(Cc3ccccc3F)C2)cc1 (configuration not stated)	8.2%
Clc1cccc(N2CCN(c3nc4ccccc4n4cnnc34)CC2)c1	1.8%
Cn1c(=O)c2c(nc(N3CCCCC3)n2CCCNC2=NCCCC2)n(C)c1=O	-26.7%
COc1ccc(-c2cc(CNS(=O)(=O)c3ccc(F)cc3)on2)cc1	22.8%
CC1CCCN(C(=O)c2ccc(Cl)c(S(=O)(=O)N3CCCCCC3)c2)C1 (configuration not stated)	-19.7%
COCCn1c(=O)c(C)nc2cnc(OCc3ccccc3)nc21	-8.3%
CCN(CC)CCCNc1ncnc2c1cnn2-c1ccc(C)c(C)c1	6.8%
Cc1ccc(C(=O)NNC(=O)c2ccc(-n3cncn3)c([N+](=O)[O-])c2)cc1	4.8%
Cc1ccc(OCC(=O)Oc2c(C)cccc2C)cc1C	-12.0%
Cc1c(C(=O)Nc2nc3ccccc3[nH]2)cccc1[N+](=O)[O-]	-10.8%
COc1ccc(NC(=O)COC(=O)C2CC(=O)N(c3ccc(OC(C)C)cc3)C2)cc1 (configuration not stated)	-4.9%
CCc1ccc(S(=O)(=O)c2nnn3c2nc(N2CCCC2)c2sccc23)cc1	3.3%
Cc1ccc(COc2ccc(Br)cc2/C=N/O)cc1	7.0%
CN(c1ccc(F)cc1)S(=O)(=O)N1CCCC(C(=O)NCc2cccc(Br)c2)C1 (configuration not stated)	9.6%

Brought forward from above: four entries, then new ones.
SMILES	VDR inhibitor
COc1ccc(NC(=O)COC(=O)C2CC(=O)N(c3ccc(OC(C)C)cc3)C2)cc1 (configuration not stated)	-4.9%
CCc1ccc(S(=O)(=O)c2nnn3c2nc(N2CCCC2)c2sccc23)cc1	3.3%
Cc1ccc(COc2ccc(Br)cc2/C=N/O)cc1	7.0%
CN(c1ccc(F)cc1)S(=O)(=O)N1CCCC(C(=O)NCc2cccc(Br)c2)C1 (configuration not stated)	9.6%
CN1C(=O)N(CC(=O)N2CCN(S(=O)(=O)c3ccc4c(c3)CCC4)CC2)C(=O)C12CCCCC2	-1.5%
COc1ccc(C(=O)/C=C/C(=O)N(Cc2ccc(F)cc2)C(C(=O)NC2CCCCC2)c2ccncc2)c(O)c1 (configuration not stated)	-5.5%
Cc1ccc(CN2CC(C(=O)NCCCSc3ccccc3)CC2=O)cc1 (configuration not stated)	-6.5%
COc1ccc(CCN(C(=O)c2snc(C(N)=O)c2N)C(C)C(=O)NC2CCCCC2)cc1OC (configuration not stated)	13.9%
O=C(NCc1cccc(F)c1)c1cccc2c1C(=O)c1ccc(N3CCC(Cc4ccccc4)CC3)cc1S2(=O)=O	-11.2%
Cc1cc(C2(c3cc(C)c(NC(=O)CN4CCOCC4)c(C)c3)CCCCC2)cc(C)c1NC(=O)CN1CCOCC1	3.3%
COc1cccc(/C=C(/C#N)c2ccc(Cl)cc2)c1OCc1cccc(C(=O)O)c1	-11.8%
CCCCCc1nnc(NS(C)(=O)=O)s1	-22.1%
Cc1ccc(NC(=O)c2nc[nH]c2C(=O)NCCCCCNC(=O)OC(C)(C)C)cc1	6.8%
CCOC(=O)N1CCN(c2ncnc3c2oc2nc(C(C)C)c4c(c23)CCC4)CC1	-5.0%
COc1ccc2nc(SCC(=O)NCC(F)(F)F)[nH]c2c1	11.5%
COCCCNC(=O)CN1C(=O)/C(=C\c2ccc(C)cc2)Sc2ccccc21	-1.5%
Cc1ccc(NC(=O)CSCC(=O)Nc2ncc3c(n2)CC(c2ccco2)CC3=O)cc1 (configuration not stated)	-25.4%
O=C(Nc1ccc(NC(=O)c2cccs2)cc1)c1cccs1	-0.3%
CN(NC(=O)C1CC(=O)N(c2ccccc2)C1)C1=NS(=O)(=O)c2ccccc21 (configuration not stated)	-3.6%
O=C(c1ccc(Sc2ccccc2)c([N+](=O)[O-])c1)N1CCOCC1	-0.5%
CCOC(=O)c1c(-c2ccccc2)cn2ccccc12	8.1%
O=C(CCNC(=O)C1CCN(S(=O)(=O)c2ccccc2)CC1)NCc1ccncc1	-27.3%
NC(=O)c1c(NC(=O)c2noc3c2CCCC3)sc2c1CCCC2	50.1µM*
CCOc1ccc(C2C=C(c3ccc(C)cc3)Nc3nnnn32)cc1 (configuration not stated)	0.0%
COCCNC(=O)/C(C#N)=C/c1ccc(OCc2ccc(F)cc2)cc1	?
O=C(Cc1ccccc1)Nc1sc2c(c1C(=O)Nc1ccccc1Cl)CCCC2	?
Cc1ccc2c(CC(=O)NC3CCCc4ccccc43)coc2c1 (configuration not stated)	-16.2%
O=C(N/N=C/c1cccnc1)c1ccc2ccccc2c1O	0.7%
CNc1nc(N)c([N+](=O)[O-])c(Nc2cccc(F)c2)n1	3.1%
CCOC(=O)C1(CCOc2ccccc2)CCN(Cc2ccc(O)cc2)CC1	-2.1%
CCCCCOc1ccc(NC(=O)CSc2cccc3cccnc23)cc1	-3.0%
Cc1noc(NS(=O)(=O)c2ccc(N/C=C\C(=O)c3cccs3)cc2)c1C	1.0%
COc1ccc(OCC(O)CN2CCNCC2)cc1 (configuration not stated)	-15.5%
COC(=O)NC1c2ccccc2Oc2ccccc21	-8.4%
c1ccc(Nc2ccccc2Nc2ccccn2)nc1	-25.7%
CCOc1ccc(N2C(=O)CC(N(CCc3ccc(OC)cc3)C(=O)/C=C/C(=O)O)C2=O)cc1 (configuration not stated)	19.9%
Cc1cccc(NC(=O)CN2CCN(CC(=O)NCc3ccc(Cl)cc3Cl)CC2)c1C	4.2%
CCOc1ccc(OCCn2c(=S)[nH]c3ccccc32)cc1	?
Cc1cccc2c(=O)cc(CSCC(=O)Nc3ccc(Cl)cc3)[nH]c12	-1.4%
CN(c1cccc(NC(=O)COc2ccccc2)c1)S(C)(=O)=O	0.0%
O=C(Cc1ccc(-n2c(=S)[nH]c3ccccc3c2=O)cc1)N1CCC(N2CCCCC2)CC1	-16.9%
CN(C(=O)COC(=O)COc1ccc2ccccc2c1)c1c(N)n(Cc2ccccc2)c(=O)[nH]c1=O	15.5%
Cc1cc(O)c2c(c1O)C(=O)[C@]13C(=C2O)C(=O)[C@@H]2[C@@H](O)[C@H]1[C@@H]1[C@H](O)[C@H]3C(=O)C3=C(O)c4c(O)cc(C)c(O)c4C(=O)[C@]312	-7.9%
CCCn1nnnc1NCc1c(Cl)cccc1Cl	10.9%
CSc1nnc(C(C)(C)C)c(=O)n1/N=C/c1ccccc1	-10.1%
COc1ccc(OCC(O)CN2CCN(c3ccc(OC)cc3)CC2)cc1 (configuration not stated)	10.7%
CC(C)CN(C(=O)COC(=O)c1cc2c(s1)CCC2)C1CCS(=O)(=O)C1 (configuration not stated)	-3.0%
Cc1ccc2nc(CSc3nnc(Nc4ccccc4F)s3)cc(=O)n2c1	-25.2%
COC(=O)CN1C(=O)C2(OCCCO2)c2cc(Br)ccc21	7.3%
O=C(OCC#CCSc1nnc(-c2cccc3ccccc23)o1)c1ccc(F)cc1	1.6%
COC(=O)C1=C(C)NC(=S)N(C(C)=O)C1c1ccc(OC)c(OC)c1 (configuration not stated)	-12.1%
COc1ccc(CNC(=O)c2cccc(S(=O)(=O)N3CCN(C)CC3)c2)cc1	-6.4%
COc1ccc2oc(C)c(C(=O)NN)c2c1	17.6%

This is a subset, so the mix of outcomes need not match the whole.
